NPYLR7 agonist: activates Aedes aegypti NPYLR7 receptor; activation, % at 10 µM; AID 1259423; HEK293T NPYLR7/Galpha15, GCaMP6s calcium fluorescence; actives 0.15% (n = 270,000); in the data active = activation above about 40%;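 note: 0% = vehicle and 100% = reference agonist at the receptor; some compounds past the cut are filed as inactive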
NPYLR7 agonist max-min: recorded beside NPYLR7 agonist, whose call it bears; activation, %; measured here: Max-Min RFU normalised activation; some inactives read as strong as hits;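 span of the calcium signal over five minutes; 0% = vehicle and 100% = native peptide agonist; compound fluorescence can raise it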
Numbers without * were called inactive; & = joins results of further samples. These rows are one share of the data (hit frequency here may not be typical).

SMILES,NPYLR7 agonist,NPYLR7 agonist max-min
COCCN(CC(=O)N1CCc2sccc2C1COc1ccccc1F)C(=O)Nc1ccc(C)cc1 (stereo unspecified),15,11
CCCCN(CC)C(=O)c1ccc(NS(=O)(=O)c2ccc(F)c(C)c2)cc1,17,13
CC1(C)NC(C(=O)O)CS1 (stereo unspecified),2,11
N=C1c2ccccc2CN1c1cc(C(F)(F)F)ccc1Cl,-4,-6
CCOC(=O)c1sc(NC(=O)COc2ccc(Cl)cc2)nc1C,2,0
O=C1NC(=S)SC1=Cc1ccccc1OCc1ccccc1,6,0
c1cc2c(cc1Nc1nc(N3CCOCC3)nc(N3CCOCC3)n1)OCO2,13,3
C#CCn1c(O)c(N=NC(=O)CNC(=O)c2cc(OC)c(OC)c(OC)c2)c2ccccc21,-4,-8
COc1ccc(N2C(=O)CSC2c2ccc(Br)cc2)cc1 (stereo unspecified),-4,-8
Cc1cc(-n2c(C)cc(C(=O)Cn3nc(C)c([N+](=O)[O-])c3C)c2C)no1,5,4
CC1(C(=O)Nc2ccccc2F)CCN1Cc1ccc(OC(F)(F)F)cc1 (stereo unspecified),-2,-7
COC(=O)c1cc(Cl)ccc1OCC(=O)N1CCCC(C)C1 (stereo unspecified),5,4
COc1ccccc1-c1ccc(NCC2(C)CCCO2)nn1 (stereo unspecified),23,20
COc1cc(NC(=O)Cn2nc(C(F)(F)F)c(Cl)c2C)cc(OC)c1OC,-8,-17
CCC(CC)NCC1(Cn2ccnc2C)CC1,15,12
Cc1c(C(=O)NC(C)CCc2ccccc2)cnc2c(-c3ccc(F)cc3)cnn12 (stereo unspecified),27,26
CCC(CNC1CCN(C)CC1)Cc1ccccc1 (stereo unspecified),0,-5
O=S(=O)(CCCOc1ccc2c(c1)OCO2)NC1CCCCCC1,0,3
O=C(Nc1cccc2ccccc12)C1CC(=O)N(C2CC2)C1 (stereo unspecified),-1,-1
O=C(Cc1c(F)cccc1Cl)N1CCN(C(=O)C2CC2c2ccc3c(c2)OCO3)CC1 (stereo unspecified),6,4
Cc1ccc(-c2cnc3c(Nc4cccc(OC(F)(F)C(F)F)c4)nccn23)cc1,-5,-12
COc1cc(-c2nc(CN3CCCC(OCc4ccccc4)C3)c(C)o2)ccc1F (stereo unspecified),19,5
COc1ccccc1-n1cc(CN2CCCC(C(=O)c3sccc3C)C2)cn1 (stereo unspecified),13,0
C=C(Br)CNC(=O)c1[nH]c(C)c(C(C)=O)c1CC,15,10
CCC(=O)N1CCCC1(C)C(=O)NCc1cnc(C)cn1 (stereo unspecified),-2,-2
COCc1nc(CN(C)C(C)c2ccccc2F)cs1 (stereo unspecified),3,2
CC(C)CCNC(=O)CC(C)NS(=O)(=O)c1cccnc1Cl (stereo unspecified),-2,-3
CN(C)c1ccc(CN2CCC(C(=O)NC(c3ccc(Cl)cc3)c3cnccn3)CC2)cc1 (stereo unspecified),7,2
COc1ccc(Nc2nc(-c3ccccc3)c3cc(Cl)ccc3n2)cc1,-2,-9
Cc1cc(C)c2nc(C)cc(NC(=O)C(C)C)c2c1,2,3
Cc1nn(CC(=O)NC2CCS(=O)(=O)C2)c(C)c1S(=O)(=O)N(C)C (stereo unspecified),1,-2
Nc1cc(Cl)ccc1Oc1ccccc1,6,7
Cc1cc(C)c(C)c(S(=O)(=O)N2CCC(c3c[nH]c4ccc(F)cc34)CC2)c1C,29,14
COc1ccc(C(=O)Nc2c(C)nc3cccc(C)n3c2=O)cc1,3,0
CN(C)S(=O)(=O)c1cccc(S(=O)(=O)N2CCN(c3cccc(Cl)c3)CC2)c1,-4,-5
CCc1nc2n(n1)C(=O)C(C(c1ccccc1F)N1CCN(C)CC1)S2 (stereo unspecified),-5,-8
COc1ccc(NC(=O)CSc2nc(=O)n(CCCN(C)C)c3c2CCCC3)cc1,0,7
Cc1oc(=O)c(-c2csc(-c3ccc(Cl)cc3)n2)c(O)c1Br,1,-1
CC(C)(C)c1ccc(NC(=O)NCc2nnnn2C2CCCCC2)cc1,-3,-3
OCc1cc(/C=C/c2ccccc2)ccn1,1,0
Cc1nccc(N2CCOc3c(O)cc(-c4nc5ccccc5s4)cc3C2)n1,1,-1
COc1ccc2oc(=O)c(C(=O)Nc3ccccc3OC)cc2c1,2,0
CC(C)(C)S(=O)CCNC(=O)Nc1ccncc1 (stereo unspecified),-2,-4
CCOC(=O)N=c1c(C#N)nc(C2OCCO2)cn1C,-5,-8
C=CCN(C)C(=O)c1cncn1-c1cccc(-c2ccc(Oc3ccccc3)cc2)c1,3,13
COc1ccc(C(=O)N(C)C)cc1NCc1ccc(Cl)s1,5&6,5&5
Cc1cc(C)n(CC(=O)NC2CCN(CCOc3ccc(Br)cc3)CC2)n1,5,1
CCOC(=O)c1c(C)nn(-c2ccc(C(=O)Nc3ccc(Oc4ccccc4)cc3)cc2)c1C,-3,-7
S=c1[nH]nc(-c2ccco2)n1C1CCCCC1,0,1
CC1CCC(NC(=O)CS(=O)Cc2ccccc2)CC1 (stereo unspecified),-13,-18
CCn1cc(C(CC(=O)NCc2ccncc2)c2cccc(Cl)c2)c2ccccc21 (stereo unspecified),27,30
CCCCCCCCc1ccc(Sc2cccc3c2C(=O)c2cccc(Sc4ccc(CCCCCCCC)cc4)c2C3=O)cc1,6,2
CCN1CCN(C(=O)CCC2CCN(C(=O)CCCC(=O)OC)CC2)CC1,4,0
O=C(Nc1ccccc1F)c1oc2ccccc2c1NC(=O)C1CC1,7,7
CCCC1COCCN1C(=O)c1cc(CC(C)C)[nH]c(=O)n1 (stereo unspecified),17&8,7&8
O=C(C1CCOCC1)N1CCCC(CO)(Cc2cccc(Cl)c2)C1 (stereo unspecified),-10,-14
CCCCCC(C)NC(=O)CN1C(=O)C2CC=CCC2C1=O (stereo unspecified),-4,-4
N=c1ccccn1CC(=O)O,2,2
Cc1cn2cc(C(=O)N(C)CCO)cc(N[C@@H]3CCOc4cccc(C)c43)c2n1,-10,-15
CC1CCCC(NC(=O)c2cncc(Br)c2)C1 (stereo unspecified),8,5

Further structures follow.
SMILES,NPYLR7 agonist,NPYLR7 agonist max-min
O=C(O)C1(S(=O)(=O)c2cccc3nsnc23)CC1,25,13
Cc1cc(OC(=O)c2ccc([N+](=O)[O-])cc2)c([N+](=O)[O-])c(=O)[nH]1,7,7
COC1(C)OC(N)(OC)C2(C#N)C(C#N)(C#N)C12C(C)=O (stereo unspecified),-2,-3
O=C(Oc1ccc(-c2ccccc2)cc1)c1ccc(S(=O)(=O)N2CCCC2)cc1,-1,-8
CCC(=O)c1ccc(OCC(O)Cn2nc(C)c(C(C)=O)c2C)cc1 (stereo unspecified),2,12
CCNc1ncc(C(=O)N2CCN(Cc3ncccc3C)CC2)cn1,6,4
Cc1cc(CSCc2cc(-c3ccccc3)on2)on1,11,9
O=C(NCC(F)(F)F)C1CCN(C(=O)c2ccc3ccccc3n2)CC1,-2,1
O=C(NCCN1CCOCC1)[C@H]1C[C@@H](O)[C@H](O)[C@@H]2N=C(Nc3ccc(Cl)cc3)S[C@@H]21,-5,-14
Cc1cc(C(=O)NC(C)Cc2ccc(Br)cc2)on1 (stereo unspecified),3,3
O=C(Nc1nnc(C2CC2)s1)c1ccco1,9,5
CCn1cnnc1CCNCc1cnc(-c2ccc3ccccc3c2)nc1,20,8
Cc1csc(NC(=O)N2CC(OCCCc3ccccc3)C2)n1,0,-7
CCN(C/C=C/c1ccccc1)C(=O)c1ncccc1C,9,5
O=C(Cn1nc(-c2ccc(F)cc2)c2sc(N3CCOCC3)nc2c1=O)c1ccccc1,-2,-4
Cc1ccc(Cn2nc(C)c(NC(=O)c3nc4ncccn4n3)c2C)cc1,17,10
Oc1c(Cl)cc(Cl)cc1C=Nc1ccc2c(c1)OCO2,14,13
O=S(=O)(NCc1ccco1)c1ccc(NS(=O)(=O)c2ccc(Cl)s2)cc1,24,13
CC(C)N(C(=O)Cn1nc(-c2ccco2)c2sc(N3CCOCC3)nc2c1=O)c1ccccc1,-3,-6
O=c1c2c(-c3cccs3)csc2[nH]c(=S)n1Cc1ccco1,3,3
NS(=O)(=O)c1ccc(S(=O)(=O)NNC(=O)c2ccccc2O)cc1,12,13
COc1ccc(S(=O)(=O)Oc2cccc(CN(C(=O)NC(C)(C)C)C3CC3)c2)cc1,-1,2
COc1cc(S(=O)(=O)NCCCN2CCOCC2)ccc1Br,15,17
O=C(C1CC1c1ccc(Cl)c(Cl)c1)N1CCCn2ncnc21 (stereo unspecified),-8,-9
Cc1ccccc1-c1noc(-c2ccc(N(C)Cc3cnn(C)c3)nc2)n1,5,3
Cc1nc2nc3c(cn2n1)C(=O)CC(c1cccc(Cl)c1)C3 (stereo unspecified),-1,1
Cn1c(CN2CCOC(c3nc(C(C)(C)C)n[nH]3)C2)nnc1C1CC1 (stereo unspecified),3,0
CCOC(=O)c1nn(-c2ccc(F)cc2)c(=O)cc1OCC(=O)N1CCN(c2ccccc2)CC1,9,6
Cc1ccc(N2CCN(C(=O)c3cccs3)C(C)C2=O)cc1Cl (stereo unspecified),3,4
Cc1cc(C)nc(-n2nc(C)c3c2CC(c2ccco2)CC3=O)n1 (stereo unspecified),3,0

Laid out differently: four of the compounds above
Cc1cc(-n2c(C)cc(C(=O)Cn3nc(C)c([N+](=O)[O-])c3C)c2C)no1
  NPYLR7 agonist: 5 | NPYLR7 agonist max-min: 4
CC1(C(=O)Nc2ccccc2F)CCN1Cc1ccc(OC(F)(F)F)cc1 (stereo unspecified)
  NPYLR7 agonist: -2 | NPYLR7 agonist max-min: -7
COC(=O)c1cc(Cl)ccc1OCC(=O)N1CCCC(C)C1 (stereo unspecified)
  NPYLR7 agonist: 5 | NPYLR7 agonist max-min: 4
COc1ccccc1-c1ccc(NCC2(C)CCCO2)nn1 (stereo unspecified)
  NPYLR7 agonist: 23 | NPYLR7 agonist max-min: 20

In a second layout: two of the compounds above.
O=C(NCCN1CCOCC1)[C@H]1C[C@@H](O)[C@H](O)[C@@H]2N=C(Nc3ccc(Cl)cc3)S[C@@H]21
  NPYLR7 agonist: -5	NPYLR7 agonist max-min: -14

Cc1cc(C(=O)NC(C)Cc2ccc(Br)cc2)on1 (stereo unspecified)
  NPYLR7 agonist: 3	NPYLR7 agonist max-min: 3

Single records (already shown):
`COc1cc(NC(=O)Cn2nc(C(F)(F)F)c(Cl)c2C)cc(OC)c1OC` as listed: NPYLR7 agonist: -8; NPYLR7 agonist max-min: -17
`CCC(=O)N1CCCC1(C)C(=O)NCc1cnc(C)cn1` (stereo unspecified) as listed: NPYLR7 agonist: -2; NPYLR7 agonist max-min: -2

Later entries
SMILES,NPYLR7 agonist,NPYLR7 agonist max-min
CC(C(=O)OC1CCS(=O)(=O)C1)c1ccc(Cl)c(Cl)c1 (stereo unspecified),6,5
c1cc(CN2CCOCC2)cc(-c2ccc3ccccc3n2)c1,-5,-5
Fc1ccccc1-n1cc(-c2ccnc(NC3CCC3)n2)cn1,12,6
Cc1cc2nc(-c3cccs3)cc(C(=O)NC(Cc3ccccc3)c3ccccc3)c2cc1C (stereo unspecified),-1,11
CCc1nc2n(n1)C(=O)C(C(c1ccc(C)cc1)N1CCC(C(=O)OC)CC1)S2 (stereo unspecified),6,10
CC(NC(=O)c1cnn2c(C(F)(F)F)cc(-c3ccc(Br)cc3)nc12)c1ccccc1 (stereo unspecified),-12,-23
CC(=O)c1c(C)nn(CC(=O)N2CCC3(CN(C)C(=O)O3)C2)c1C (stereo unspecified),4,1
COCc1ccc(C(=O)N2CCC3(CCCN(CCc4ccccc4)C3)C2)s1 (stereo unspecified),8,3
Cc1oc(-c2cccc(F)c2F)nc1CN(C)CC1CCCNC1 (stereo unspecified),1,3
CC(CCNC(=O)c1cccnc1NC1CCCC1)c1ccccc1 (stereo unspecified),3,1
CCn1c(CC2CCN(C(=O)CN3CCCCCC3=O)CC2)nn(C)c1=O,2,2
Cc1nn(C(C)(C)C)c(OC(=O)COc2ccccc2)c1S(=O)(=O)c1ccccc1,1,2
CC(NS(=O)(=O)c1cc(C(F)(F)F)ccc1Cl)C(=O)N(C)C1CCN(C)CC1 (stereo unspecified),-3,-5
O=C(c1cc(CN2CCC(O)CC2)on1)N1CCOc2ccccc2C1,8,7
CC(C)n1nccc1NS(=O)(=O)c1ccc(F)cc1F,5,1
Clc1ccc(-c2nnn(Cc3nc(-c4ccccc4)no3)n2)cc1,-9,-11
CCCc1nc(C(=O)N2CCC3(CN(C)C(=O)O3)C2)cs1 (stereo unspecified),5,1
O=C(CN1CCCS1(=O)=O)Nc1ccc(OC2CCCC2)c(Cl)c1,13,13
CNC(=O)c1cccc(NC(C)C(=O)NCc2ccc(C)cc2)c1 (stereo unspecified),-3,-5
O=C(Nc1cnc2n1CCCC2)c1coc(CN2CCOCC2)c1,2,2
COc1c(Br)cc(F)cc1NC(=O)CC(C)(C)CC(=O)O,1,2
O=C(Nc1cccc(COc2ccc3c(c2)OCO3)c1)N1CCOCC1,-21,-23
C=CCOCC(O)CN(CCc1nc(-c2ccc(Br)cc2)no1)Cc1ccco1 (stereo unspecified),3,5
Cc1cc(C)c(S(=O)(=O)N2CCN(c3nc4ccccc4nc3C)CC2)c(C)c1,-14,-15
COc1cccc(C(=O)N2CCN(C(=O)CN3CCc4sccc4C3c3cccc(F)c3)CC2)c1 (stereo unspecified),11,-1
CCCC(C)(C)C(=O)N1CCC1(C)C(=O)NS(=O)(=O)c1ccc(OC)cc1 (stereo unspecified),4,7
Cc1ccc(C)c(C2c3cccn3CCCN2Cc2cccnc2)c1 (stereo unspecified),4,3
